Rce1 inh: inhibitors of yeast Ras-converting enzyme | yeast membranes, quenched prenylated peptide cleavage fluorescence | Q03530 | calls only | 290,000 compounds, 0.27% hits | AID 2563;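 active means fall in fluorescence gain of 50% or more versus controls, with final raw signal at or below 3038400; inconclusive means same 50% fall but final raw signal above 3038400; inactive means fall in fluorescence gain under 50%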;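 further: plate controls were neutral control wells for no effect and wells lacking membranes for full effect; tested at 10 µM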
MT1-MMP act inh: blocks activation of human MT1-MMP | HT1080 RFP-PRO-GFP cells, GFP/RFP ratio fluorescence, overnight; percent of plate control window, DMSO zero | 360,000 compounds, 0.061% hits | P50281 | GFP/RFP ratio change, % at 20 µM;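 active means GFP/RFP ratio change of at least 30% with cell ATP level not reduced by more than half and red fluorescence within 50% of control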; further: strong numbers were not always called active
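Material – HT1080 RFP-PRO-GFP cells · Control set – DMSO wells and RFP-L50D-GFP cells · Incubation – overnight cell settling, then overnight compound exposure, 37 °C, 5% CO2 · Compound dosing – single-point 20 µM compound, 1% DMSO · Read-out – GFP/RFP fluorescence ratio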
Env fusion inh: blocks HIV Env-driven cell-cell fusion. HeLa-JRFL Env/CEM21 cell fusion, luciferase. inhibition, % at 12.3 µM. 360,000 compounds, 1.1% hits;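 active means mean replicate inhibition score of at least 50 and every replicate individually at or above 50; inconclusive means only one of the two criteria met; inactive means mean below 50 and not all replicates reaching 50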;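 further: 0% = plate neutral controls and 100% = maraviroc near 300 nM; one replicate is shown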
eIF4H FP inh: inhibitors of RNA binding by human eIF4H; Q15056; eIF4H fluorescence polarization binding assay; inhibition, % at 35 µM; 290,000 compounds, 0.94% hits;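 active means 50% or more with normal probe brightness, or confirmed in later tests; inconclusive means above 50% with abnormal brightness, or retests that disagree; inactive means below 50% or failed in later tests; about a fifth of its hits are not listed in these tables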;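 further: calls also rest on retests at 20 µM and on dose response follow-up; 0% = protein and probe with vehicle and 100% = probe without protein; strong numbers were not always called active; many hits fall short of the cut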
CSC inhib: cancer stem cell inhibition; cancer stem cell-like cells viability, luminescence; inhibition, % at 7.5 µM; 300,000 compounds, 1.1% hits;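 active means mean at 75% or more and at least half the replicates too; inconclusive means mean and replicates disagree; tested in HMLE shEcad cells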;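 further: 0% = median of negative and 100% = median of positive control wells; the first replicate is given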
PABP polyA inh: blocks human PABP binding to poly(A) RNA. P11940. AID 2014. fluorescence polarization. inhibition, % at 35 µM. 290,000 compounds, 1% hits;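 active means 50% or more with normal probe brightness, or confirmed in later tests; inconclusive means above 50% with abnormal brightness, or retests that disagree; inactive means below 50% or failed in later tests; about a fifth of its hits are not listed in these tables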;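 further: calls also rest on retests at 20 µM and on dose response follow-up; controls were probe without protein and protein plus probe with vehicle; some compounds called inactive have numbers as strong as hits; many hits fall short of the cut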
Target sequence (P11940 whole entry, looked up): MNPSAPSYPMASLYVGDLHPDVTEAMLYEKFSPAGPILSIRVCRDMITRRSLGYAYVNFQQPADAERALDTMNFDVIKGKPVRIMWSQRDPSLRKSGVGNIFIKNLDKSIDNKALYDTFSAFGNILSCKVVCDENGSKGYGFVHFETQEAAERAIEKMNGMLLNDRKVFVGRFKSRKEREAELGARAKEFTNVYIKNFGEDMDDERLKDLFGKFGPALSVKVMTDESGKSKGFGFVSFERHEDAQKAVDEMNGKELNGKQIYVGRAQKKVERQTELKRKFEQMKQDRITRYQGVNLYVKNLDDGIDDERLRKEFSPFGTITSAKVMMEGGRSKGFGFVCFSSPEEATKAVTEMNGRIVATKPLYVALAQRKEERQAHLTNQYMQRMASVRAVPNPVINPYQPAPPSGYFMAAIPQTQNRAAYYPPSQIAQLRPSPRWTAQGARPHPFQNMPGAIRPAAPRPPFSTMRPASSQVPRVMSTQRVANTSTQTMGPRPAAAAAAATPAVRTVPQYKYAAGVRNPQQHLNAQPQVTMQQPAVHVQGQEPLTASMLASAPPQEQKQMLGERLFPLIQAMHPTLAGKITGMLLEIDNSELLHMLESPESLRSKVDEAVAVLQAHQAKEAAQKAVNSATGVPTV
Yeast UUG start: modulators of start codon recognition fidelity in yeast | 350,000 compounds, 0.13% hits | S. cerevisiae UUG-firefly luciferase reporter, luminescence/redox ratio | activity score, % at 18.7 µM;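 active means replicate mean at a twofold rise or more, about +100% in these data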;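 further: firefly luciferase made from a UUG start codon reports start codon fidelity; reporter light over untreated wells divided by growth signal over untreated wells; some hits fall short of that in this replicate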
PABP polyA inh retest: further read-out of PABP polyA inh, marked with its call; inhibition, %; compound at 20 µM; confirmation repeats;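 mean of two retest wells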
MT1-MMP act inh RFP: further read-out of MT1-MMP act inh, marked with its call; RFP signal change, %; measured here: RFP expression control read;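 0 = vehicle wells; hits needed this value within 50% of zero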
The depositor's hits bear a star; i = inactive; ? = inconclusive; . = no result given.

SMILES | Rce1 inh | MT1-MMP act inh | MT1-MMP act inh RFP | Env fusion inh | eIF4H FP inh | CSC inhib | PABP polyA inh | Yeast UUG start | others
COC(=O)C1=C(c2ccc(F)cc2OCc2ccccc2)C[C@@H]2CC[C@H]1N2C(=O)NC(C)C | . | 0 | 1 | 11 | . | 13 | . | -10
CC12CCCCC1=[N+]([O-])CN2O (stereo not given) | i | 6 | 9 | -56 | -8 | -15 | 2 | -11
OC(CNCc1ccccc1)c1ccc(Cl)cc1 (stereo not given) | . | 4 | 8 | 2 | . | . | . | 2
COC(=O)C1=C(c2cccc(C#N)c2)C[C@@H]2CC[C@H]1N2C(=O)NC1Cc2ccccc2C1 | . | -4 | -4 | -3 | . | 84* | . | -11
O=C(C[N+]12CCC(CC1)C(OC(=O)c1ccccc1)C2)c1ccc([N+](=O)[O-])cc1 (stereo not given) | i | -6 | -4 | 5 | -11 | -2 | -5 | .
C[C@]12CCC3C(CC[C@H]4C[C@@H](O)CC[C@]34C)C1C[C@@H](Br)[C@H]2O (stereo not given in full) | . | 7 | -2 | -13 | . | -6 | . | -1
CC1CCN(CCc2nc3ccccc3[nH]2)CC1 | i | -5 | -8 | 1 | -1 | 6 | -5 | -30
COc1ccc(C2NCc3ccc4c(c3-n3cccc32)OCO4)cc1O (stereo not given) | i | . | . | . | -1 | 49 | -11 | .
CCOP(=O)(OCC)C(NC(=O)c1ccc(C)cc1)=C(Cl)Cl | i | -1 | 4 | 0 | 9 | -10 | -4 | .
CN1CCc2nc(SCc3cccc(Br)c3)c(C#N)cc2C1 | i | -4 | -1 | 21 | 3 | 24 | 0 | .
CCCCCCn1c(O)c(C=NC2CCN(Cc3ccccc3)CC2)c(=O)[nH]c1=O | i | 2 | -20 | . | -9 | 21 | 7 | -9
O=C1CC(N2CC=C(c3ccc(F)cc3)CC2)C(=O)N1c1ccc(F)cc1 (stereo not given) | i | -3 | 4 | -26 | -16 | -9 | 0 | -18
C[C@]12CCC3C(CC[C@H]4C[C@H](O)CC[C@]34C)C1C[C@H](O)[C@@H]2O (stereo not given in full) | . | -4 | -1 | 8 | . | -6 | . | -12
COC(=O)CCCC(NC(=S)N1CC2C[C@@H](C1)Cn1c2cccc1=O)C(=O)OC (stereo not given in full) | i | 2 | -1 | 1 | 5 | -15 | 3 | -22
C=CCn1c(O)c(C(C)=NCc2ccc3c(c2)OCO3)c(=O)[nH]c1=O | i | 2 | 1 | 5 | 3 | . | -6 | .
CSc1ccc(C(c2c(O)c3ccccc3oc2=O)c2c(C)n(C)n(-c3ccccc3)c2=O)cc1 (stereo not given) | i | 6 | 1 | 5 | -5 | 4 | 1 | -14
Fc1ccc(CNCCc2ccccc2F)cc1 | i | 1 | 2 | -21 | -4 | 16 | -9 | .
Cc1ccc(N2C(=O)/C(=C/N3CCN(C(=O)c4ccco4)CC3)C(=O)NC2=S)cc1C | i | -13 | 9 | . | 20 | -2 | 1 | -34
C[C@]12CCC(=O)C=C1CCC1C2CC[C@@]2(C)C1CC[C@]2(C)O (stereo not given in full) | . | 7 | -3 | -3 | . | -13 | . | -15
CCOP(=O)(OCC)C(O)c1cccnc1 (stereo not given) | i | -2 | 1 | -12 | -10 | . | 4 | .
Cn1c(O)c(C(=NCCN2CCCCC2)c2ccccc2Cl)c(=O)n(C)c1=O | i | -4 | 7 | -58 | -1 | -6 | 5 | -3
CCN1CCN(c2cc(N3CCCC3)c(F)cc2[N+](=O)[O-])CC1 | i | 7 | 3 | -92 | 1 | -12 | -7 | 37
O=S(=O)(c1ccc(Cl)cc1)N1CCCC1c1cccnc1 (stereo not given) | i | 1 | 4 | 19 | -8 | -4 | 5 | -17
Cc1cccc(C)c1-n1nnnc1C(c1ccccc1)N1CCC2(CC1)C(=O)NCN2c1ccccc1 (stereo not given) | . | -4 | -7 | -15 | . | . | . | -18
Cn1c(=O)c2c(nc(-c3ccc(N(CCCl)CCCl)cc3)n2C)n(C)c1=O | . | 3 | 0 | -2 | . | . | . | -7

Further records.
SMILES | Rce1 inh | MT1-MMP act inh | MT1-MMP act inh RFP | Env fusion inh | eIF4H FP inh | CSC inhib | PABP polyA inh | Yeast UUG start | others
Cc1cc(C(=O)OCC(=O)Nc2c(F)cccc2F)c(C)n1C1CC1 | . | 2 | 1 | -15 | . | . | . | -11
Clc1ccc(CN2CCNCC2)cc1 | i | -2 | 3 | 6 | 0 | -7 | 0 | -10
Oc1cc(O)cc(/C=C/c2ccc(O)cc2O)c1 | . | 2 | 5 | . | . | 2 | . | -69
Cc1ccc(-n2c(=S)[nH]c3ccccc3c2=O)cc1F | . | 2 | -1 | -41 | . | . | . | -5
COC(=O)C1=C(c2cc3ccccc3o2)C[C@@H]2CC[C@H]1N2C(=O)NCCCOC(C)C | i | -5 | 0 | 23 | . | -4 | . | -7
NCC(O)c1cc(O)c(O)cc1F (stereo not given) | . | 4 | 3 | -2 | . | -6 | . | -5
O=c1[nH]c(O)c(N=Nc2cc([N+](=O)[O-])ccc2O)c(=O)[nH]1 | i | 58 | 57 | -5 | -5 | 18 | -4 | .
C=CCn1c(O)c(C(C)=NCCN2CCOCC2)c(=O)[nH]c1=O | i | -1 | 4 | 19 | -4 | -10 | 3 | -14
COc1ccccc1N1C(=O)NC(=O)/C(=C/c2ccc3c4c(cccc24)CC3)C1=O | i | -5 | 6 | 2 | 35 | 5 | 5 | -8
COc1ccc(N2C(=O)C(=O)N(c3ccc(OC)cc3)P2(=O)N(CCCl)CCCl)cc1 | . | 0 | 2 | -1 | . | . | . | -25
CN1c2ccc([N+](=O)[O-])cc2CC2(C(=O)NC(=O)N(c3ccc(Br)cc3)C2=O)C1c1ccccc1 (stereo not given) | i | -8 | -10 | -8 | -7 | 37 | 25 | .
O=C(CN1CCCCC1)NCC(=O)Nc1ccc(Br)cc1C(=O)c1ccccc1 | . | -2 | -4 | 12 | -14 | 10 | -6 | -2
Cc1ccc(-c2cc(-c3ccccc3)cc(-c3ccccc3)[n+]2-c2ccc(C(=O)O)cc2)cc1 | i | 1 | 0 | 8 | . | 1 | . | -2
Nc1ncnc2c1ccn2[C@@H]1O[C@H](CO)[C@@H](O)[C@H]1O | . | -19 | -23 | . | . | -5 | . | -16
O=C(c1ccc2c(=O)n(Cc3ccc4c(c3)OCO4)c(=S)[nH]c2c1)N1CCC2(CC1)OCCO2 | i | 15 | 2 | . | 6 | 9 | 6 | .
CCCCOCCCn1c(N)c(C(=O)OCCOC)c2nc3ccccc3nc21 | i | -3 | 5 | . | -2 | 6 | -3 | -16
COc1ccc(C(=O)NC(=S)N2C[C@H]3C[C@H](C2)c2cccc(=O)n2C3)cc1OC | i | -1 | 1 | . | -2 | -7 | 1 | -29
CNC(=O)N(C)c1nnc(C(C)(C)C)s1 | i | 0 | 3 | -20 | -12 | . | 5 | 19
CCCNC(=O)N1[C@H]2CC[C@@H]1C(C(=O)OC)=C(c1cccc(OC)c1OC)C2 | i | 0 | 4 | -3 | . | -7 | . | 20
COc1cccc(OP(=O)(Nc2ccccc2)Oc2cccc(OC)c2)c1 | i | -1 | -1 | . | -11 | 29 | 10 | 3
COCCCNC(=O)c1c(NC(=O)c2ccccc2)n(Cc2ccccc2)c2nc3ccccc3nc12 | i | -64 | -3 | -18 | . | -6 | . | -9
CC(=O)C1CCC2C3CCC4CC(O)CCC4(C)C3CCC12C (stereo not given) | i | 7 | -3 | -7 | . | -13 | . | -3
O=c1[nH]c(=O)n(Cc2ccc(F)cc2)c(O)c1C=NCCN1CCCCC1 | i | 2 | 2 | 23 | -7 | 7 | -13 | -11
CC(=NCCCN1CCOCC1)c1c(O)n(Cc2ccccc2)c(=O)[nH]c1=O | i | 9 | 0 | -31 | -3 | -6 | 0 | 10
CCCC(C)n1[nH]c(=O)c2c1NC(=O)CSC2c1ccccc1 (stereo not given) | i | 1 | 0 | 7 | -4 | 0 | -8 | -11

Other entries follow:
SMILES | Rce1 inh | MT1-MMP act inh | MT1-MMP act inh RFP | Env fusion inh | eIF4H FP inh | CSC inhib | PABP polyA inh | Yeast UUG start | others
COc1ccc(CCN)cc1OC | i | 0 | -2 | . | -2 | -8 | 0 | -12
CCOP(=O)(OCC)C(O)c1ccc(OC)cc1 (stereo not given) | i | 3 | 7 | -7 | 4 | 1 | 0 | -31
CN1CCN(c2ccc([N+](=O)[O-])c(NCc3ccco3)c2)CC1 | i | -6 | -3 | -2 | 4 | 93* | 7 | .
OC(c1ccc(F)cc1)C(c1ccccc1)N1CCOCC1 (stereo not given) | i | -7 | -4 | . | 0 | -2 | 2 | -18
COc1ccc(C(=O)C(Cc2ccccc2)N(C)C)cc1 (stereo not given) | i | -8 | 1 | -4 | 5 | -1 | -8 | -22
CCOC(=O)C1CCN(/C=C2/C(=O)NC(=S)N(c3cccc(OC)c3)C2=O)CC1 | i | 0 | 7 | -3 | -13 | -5 | -2 | .
COc1ccc(CCNC2CCCCC2)cc1OC | i | 2 | 5 | -2 | -3 | 3 | 3 | .
O=C1NC(=O)N(c2ccccc2)C(=O)/C1=C/C=C/c1ccco1 | i | -11 | 32 | -75 | ? | 88* | ? | -1
COc1ccc(-n2cnc3cc(C(=O)N4CCC5(CC4)OCCO5)ccc32)cc1 | i | -2 | -7 | -14 | -4 | . | -12 | .
COC(=O)C(c1ccccc1)N1CCCCCC1 (stereo not given) | i | -5 | -2 | . | 2 | 8 | 2 | -14
CCC12CN3CCN(CC(C3)C1O)C2 (stereo not given) | i | 1 | 1 | -43 | 1 | -6 | 5 | -19
O=c1[nH]c(=O)n(Cc2ccccc2)c(O)c1/C=N/Nc1c(F)c(F)c(F)c(F)c1F | i | -3 | 2 | 2 | 92* | -15 | 71* | -10
COc1ccccc1C=C1C(=O)NC(=S)NC1=O | . | -7 | 4 | -7 | . | . | . | -24
CCc1cc(=O)oc2cc(C)cc(OCC(=O)N3CCC(C(=O)O)(c4ccccc4)CC3)c12 | . | 5 | 6 | . | -3 | -2 | -15 | -1
CN(C)c1ccc(/C=C2\C(=O)NC(=O)N(Cc3ccc(F)cc3)C2=O)cc1 | i | 15 | 22 | 2 | ? | -14 | 46* | -8 | PABP polyA inh retest=116*
O=C(Nc1ccccc1)c1cc([N+](=O)[O-])ccc1N1CCNCC1 | . | 0 | 1 | -5 | 0 | -9 | 0 | .
CC(c1ccccc1)(c1ccccc1)c1ccncc1 | i | -4 | -4 | 15 | 2 | . | 17 | .
c1ccc2c3c([nH]c2c1)C1(CCNCC1)NCC3 | i | 3 | 7 | 5 | -4 | -2 | 6 | .
Oc1c(Cl)cc(Cl)cc1CN1CCN(Cc2ccccc2)CC1 | i | 2 | -3 | . | -8 | 5 | 46 | 10
O=C(COc1ccc(Cl)cc1)N1CCN(Cc2ccccc2)CC1 | i | 8 | -6 | . | 5 | 10 | 7 | -14
Cc1ccc(/C=C2\C(=O)NC(=S)N(c3ccc(F)cc3)C2=O)o1 | i | -10 | 6 | 12 | 6 | 13 | -1 | 2
CC(Cc1ccccc1)NCCC(c1ccccc1)c1ccccc1 (stereo not given) | . | -7 | -6 | -99 | . | 86* | . | -7
O=Cc1c(C(=O)O)n(Cc2ccccc2Cl)c2ccccc12 | i | -10 | -2 | 9 | 1 | 2 | -2 | .
CCOC(=O)c1c(C)n(Cc2ccco2)c2c1cc(O)c1ccccc12 | i | -2 | 2 | -45 | 14 | 5 | 19 | -11
COC(=O)Cn1cc(C=C2C(=O)NC(=O)NC2=O)c2ccccc21 | i | -4 | 7 | -2 | 43 | 5 | 13 | -15
O=c1[nH]c(=O)n(CCC2=CCCCC2)c(O)c1C=NC1CCN(Cc2ccccc2)CC1 | . | -6 | -27 | . | -10 | 7 | -1 | 0

These rows are one share of the data. The share of hits here may be higher or lower than overall.
